Mtb bLac sens – beta-lactam sensitization of Mtb H37Rv | M. tuberculosis H37Rv growth with meropenem, percent inhibition; hits of this screen are not shown here | inhibition, % at 25 µM | 330,000 tested, 0.27% active | AID 434955;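 active means about 74% or more and at least 40 points above the plate without the antibiotic, then above 30% in a dose series; inconclusive means first-round hits that could not be retested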;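 further: growth measured after seven days incubation then overnight dye step; 0% = bacteria only wells and 100% = bacteria with antibiotic; twin plates without the antibiotic show which effects depend on it; some results filed as inactive read as strong as hits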
RecA splice inh – inhibitors of M. tuberculosis RecA intein splicing | P9WHJ3 | cell-free RecA intein splicing, fluorescence | inhibition, %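 (about 9 µM by stock and volumes)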 | 290,000 tested, 0.75% active; in the data active means inhibition above about 30%; inconclusive means no clear call, values can overlap the other calls;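 further: 0% = vehicle wells and 100% = reference inhibitor control wells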
Target sequence (P9WHJ3 whole entry, looked up, canonical isoform): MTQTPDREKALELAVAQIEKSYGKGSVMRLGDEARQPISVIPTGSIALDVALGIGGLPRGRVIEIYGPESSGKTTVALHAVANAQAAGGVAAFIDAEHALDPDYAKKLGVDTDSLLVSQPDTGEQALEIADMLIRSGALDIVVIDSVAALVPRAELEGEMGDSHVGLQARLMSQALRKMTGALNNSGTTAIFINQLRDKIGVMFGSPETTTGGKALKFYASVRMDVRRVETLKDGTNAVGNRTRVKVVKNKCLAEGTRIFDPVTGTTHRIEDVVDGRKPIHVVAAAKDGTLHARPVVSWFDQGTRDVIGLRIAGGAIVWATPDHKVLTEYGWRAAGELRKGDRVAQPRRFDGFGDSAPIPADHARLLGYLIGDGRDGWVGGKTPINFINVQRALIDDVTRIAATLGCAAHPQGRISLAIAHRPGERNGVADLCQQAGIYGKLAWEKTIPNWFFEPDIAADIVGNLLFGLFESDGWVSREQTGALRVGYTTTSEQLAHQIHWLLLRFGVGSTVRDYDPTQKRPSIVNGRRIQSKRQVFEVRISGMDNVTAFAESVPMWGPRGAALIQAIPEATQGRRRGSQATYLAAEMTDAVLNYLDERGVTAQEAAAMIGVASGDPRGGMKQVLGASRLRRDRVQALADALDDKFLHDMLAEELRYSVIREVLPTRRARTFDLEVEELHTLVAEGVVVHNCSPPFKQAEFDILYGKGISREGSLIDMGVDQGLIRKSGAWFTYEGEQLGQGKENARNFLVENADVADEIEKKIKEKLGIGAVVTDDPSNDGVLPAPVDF
Mtb growth – M. tuberculosis H37Rv growth inhibitors, H37Rv strain (AID 1626); M. tuberculosis H37Rv growth inhibition; higher % means a stronger effect; inhibition, % at 10 µM, or IC50 in µM where a hit was titrated; 220,000 tested, 0.95% active;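 active means confirmed in a dose series; inconclusive means inhibition above 80% but not taken into the dose series; inactive means below 80% or under 30% at every dose of the series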;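 further: bacteria incubated seven days before Alamar blue readout; 0% = bacteria only wells and 100% = bacteria with antibiotic wells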
YopH PTP inh – inhibitors of Yersinia enterocolitica YopH tyrosine phosphatase. fluorescence Ex485/Em525. inhibition, %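 (about 10 µM by stock and volumes)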. 140,000 tested, 0.16% active;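 active means inhibition of 50% or more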;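 further: controls were vehicle for no effect and minimum signal wells for full effect; inactives centre near -20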
Arbovirus anti – blocks arbovirus infection | arbovirus infection cell-based antiviral screen | inhibition, % at 10 µM | 200,000 tested, 0.37% active;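 active means inhibition from about 30%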;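 further: bluetongue infection of BSR cells; cell survival read as ATP light after 72 h; 0% = infected wells without compound and 100% = uninfected wells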
Arbovirus anti repeat – further read-out of Arbovirus anti, marked with its call; inhibition, %; measured here: 10K subset replicate screen; many hits read low in the repeat;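 first of two repeat runs on a subset; 0% = infected and 100% = uninfected wells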
Active calls of the source: *; ? = inconclusive; . = no result given. An excerpt, so the mix of outcomes need not match the whole.

SMILES | Mtb bLac sens | RecA splice inh | Mtb growth | YopH PTP inh | Arbovirus anti | others
COc1cc(CN2CCN(c3ccccc3F)CC2)c([N+](=O)[O-])cc1OC | 2 | -4.4 | 1% | -27 | 10
CCOC(=O)/C(C#N)=N/Nc1ccc(S(=O)(=O)Nc2cc(OC)nc(OC)n2)cc1 | 0 | 0.5 | . | . | .
CNc1nnc(-c2cc3cc(Cl)ccc3oc2=O)s1 | 99 | -103 | 10% | -21 | 2
COC(=O)c1ccc(C(C(=O)NC2CCCCC2)N(C(=O)Cc2cccs2)C2CC2)cc1 (stereo not given) | -1 | -5.8 | -3% | -53 | 6
Cc1ccc(OCCn2c(NC(=O)c3ccco3)nc3ccccc32)cc1 | 94 | -0.7 | ? | -28 | 1
CCc1ccc2c(c1)C(=O)C[C@]1(CCC[C@H](C)C1)O2 | 3 | 3.9 | . | . | .
Cc1ccc(C)c(NC(=O)CN(C)C(=O)c2cc(S(=O)(=O)N3CCOCC3)ccc2N2CCCC2)c1 | -8 | -1.4 | . | . | .
CCCNC(=O)c1cc(S(=O)(=O)N2CCCCC2)ccc1N1CCOCC1 | 0 | -0.1 | . | . | .
CCCCN(CC)CCNC(=O)c1cc2c(=O)n(CC)c3ccccc3c2s1 | 3 | -0.4 | . | . | .
COc1ccc(-c2[nH]ncc2CNCCn2cccn2)c(F)c1 | -5 | 0.7 | -7% | . | -2
CCOC(=O)c1ccccc1NC(=O)Cc1c(C(=O)O)n(C)c2ccccc12 | -4 | 0.2 | . | . | .
CCOc1cc(C)c(Cl)cc1S(=O)(=O)N(C)C | 27 | -7.8 | 8% | -21 | -2
CCOP(=O)(OCC)c1nc(-c2ccc(F)cc2)oc1NCc1ccccc1 | -2 | 4.8 | 7% | . | -7
CC(C)(C)c1cc(C(=O)CCN2CCOCC2)cc(C(C)(C)C)c1O | 67 | 30* | . | . | .
C=CC(=O)Nc1sc2c(c1C(N)=O)CCCC2 | 72 | 4.2 | . | . | .
CN(Cc1ccc(Cl)cc1)C(=O)c1cc(S(=O)(=O)N2CCOCC2)ccc1N1CCCC1 | -12 | 1.0 | . | . | .
O=C(NCc1nnc(SCC(=O)N2CCN(c3ccccc3)CC2)o1)c1c(F)cccc1Cl | 2 | -2.6 | . | . | .
CCCSc1nc(C)c(C(C)=O)cc1C#N | -4 | 1.6 | 2% | -1 | 6
O=C1C(Cc2c[nH]c3ccccc23)NC(=S)N1C1CCCCC1 (stereo not given) | 4 | 0.6 | -4% | . | -2
CC1CCN(Cc2nnnn2CCCC(=O)N(C)C(C)c2ccccn2)CC1 (stereo not given) | -9 | -2.3 | . | . | .
CC(/C=N/NC(=O)c1ccccn1)=C\c1ccco1 | . | 1.6 | 8% | . | .
CCCOc1ccc(C(O)(CCC)CCN2CCCCC2)cc1 (stereo not given) | -16 | 0.0 | -3% | -10 | 5
CCc1ccccc1NC(=O)CCOc1ccccc1 | -8 | -0.1 | . | . | .
Nc1c(C(=O)N/N=C/c2ccc(Cl)cc2)cnn1-c1ccccc1 | 2 | 0.7 | -9% | . | .
CCc1cccc2sc(N(CCCN3CCOCC3)C(=O)CS(=O)(=O)c3ccccc3)nc12 | 2 | 3.7 | . | . | .

5 compounds picked at random from those above, as already listed:
SMILES | Mtb bLac sens | RecA splice inh | Mtb growth | YopH PTP inh | Arbovirus anti | others
COc1cc(CN2CCN(c3ccccc3F)CC2)c([N+](=O)[O-])cc1OC | 2 | -4.4 | 1% | -27 | 10
C=CC(=O)Nc1sc2c(c1C(N)=O)CCCC2 | 72 | 4.2 | . | . | .
Nc1c(C(=O)N/N=C/c2ccc(Cl)cc2)cnn1-c1ccccc1 | 2 | 0.7 | -9% | . | .
COC(=O)c1ccc(C(C(=O)NC2CCCCC2)N(C(=O)Cc2cccs2)C2CC2)cc1 (stereo not given) | -1 | -5.8 | -3% | -53 | 6
Cc1ccc(OCCn2c(NC(=O)c3ccco3)nc3ccccc32)cc1 | 94 | -0.7 | ? | -28 | 1

(list continues)
SMILES | Mtb bLac sens | RecA splice inh | Mtb growth | YopH PTP inh | Arbovirus anti | others
COc1ccc(-c2nnc3sc(-c4ccco4)nn23)cc1OC | 2 | 2.1 | 6% | -4 | -6
COc1ccc(CCNC(=O)COC(=O)COc2ccc(C#N)cc2)cc1 | -5 | 0.2 | 4% | . | 1
CCN(CC)CCCN(C(C)=O)c1nc(-c2cc(OC)ccc2OC)cs1 | -16 | -0.1 | -15% | -51 | -19
CCC(NC(=O)Cc1c(C)c2ccc(OC)c(C)c2oc1=O)C(=O)NC(Cc1ccc(Cl)cc1)C(=O)O (stereo not given) | -7 | -2.5 | . | . | .
COc1cc(CNCCCO)ccc1OCC(=O)NC(C)(C)C | -1 | -5.6 | 3% | . | 1
O=C(c1csc2ccccc12)N1CCN(c2ccc(Cl)c(Cl)c2)CC1 | 14 | 12 | 4% | -53 | -13
Cc1nc(C)n(CC(C)C(=O)N2CCN(S(=O)(=O)c3ccccc3)CC2)n1 (stereo not given) | 5 | 0.6 | . | . | .
CCNC(=O)C1CCN(S(=O)(=O)c2ccc(F)cc2)CC1 | -5 | -1.9 | -4% | -49 | -7
CCc1ccc(-c2cn(C3CCCCC3)c(=S)[nH]2)cc1 | 3 | 16 | 2% | . | 4
C[C@]12C=CC(=O)C=C1CC[C@@H]1C2CC[C@]2(C)OC(=O)CCC12 (stereo not given in full) | -7 | -2.2 | . | . | .
O=C(c1ccccc1S(=O)(=O)NCc1ccccc1)N1CCCCC1 | -7 | . | -4% | -47 | -2 | Arbovirus anti repeat=-2
CSCCC(NS(=O)(=O)c1ccc(Cl)cc1)C(=O)OCC(=O)N1CCOCC1 (stereo not given) | 0 | -0.6 | -4% | -36 | 2
COc1ccc(C(=O)Nc2ccc3[nH]c(-c4cccc(OC)c4)cc(=O)c3c2)cc1 | 35 | -6.5 | 1% | -25 | -12
O=C(NCC1CCCCC1)c1ccc(F)cc1Cl | 1 | -0.8 | . | . | .
CCCCN(C)C(=O)c1ccc(CS(=O)(=O)c2ccccc2C)o1 | 6 | -0.4 | -6% | -22 | -5 | Arbovirus anti repeat=6
CSc1nc2ccccc2cc1/C=C(\C#N)c1cccc(Cl)c1 | 5 | 8.7 | 7% | -15 | -19
O=C(CSc1ccc(-c2ccco2)nn1)N1CCCCCC1 | -1 | 1.6 | -1% | . | -2
O=C(CCCCCN1C(=O)c2ccccc2C1=O)Nc1ccc(S(=O)(=O)N2CCCCC2)cc1 | 2 | 2.5 | 1% | -23 | 10
Cc1cc(C(=O)N/N=C/c2cc(Br)ccc2OC(=O)c2ccccc2)n[nH]1 | 1 | . | . | -31 | -20
O=C(O[C@@H]1OC2COC(=O)c3cc(O)c(O)c(O)c3-c3c(cc(O)c(O)c3O)C(=O)O[C@@H]([C@H]1O)[C@@H]2O)c1cc(O)c(O)c(O)c1 | 9 | 18 | -6% | 54* | -14
O=C(Cc1cccs1)Nc1nnc(SCC(=O)N2CCCCC2)s1 | -2 | -3.1 | 0% | -43 | 5
CCOC(=O)c1c(-c2ccccc2)oc2ccc(O)c(CN3CCN(C)CC3)c12 | 2 | 0.4 | 6% | -18 | -29
Cc1ccc(Cl)cc1N1CCN(S(=O)(=O)c2c(C)nc3scc(C)n3c2=O)CC1 | -1 | 0.1 | . | . | .
O=C(NCCOCc1ccccc1)C(c1ccccc1)c1ccccc1 | -13 | 5.5 | 4% | . | 1
Cc1cccc(N2C(=O)N3[C@@H]4c5ccccc5OC[C@@H]4[C@@H](c4ccccc4)[C@]3(C)C2=O)c1 | -11 | 7.2 | . | . | .

The final six records of the part before are carried over, then new ones follow.
SMILES | Mtb bLac sens | RecA splice inh | Mtb growth | YopH PTP inh | Arbovirus anti | others
O=C(O[C@@H]1OC2COC(=O)c3cc(O)c(O)c(O)c3-c3c(cc(O)c(O)c3O)C(=O)O[C@@H]([C@H]1O)[C@@H]2O)c1cc(O)c(O)c(O)c1 | 9 | 18 | -6% | 54* | -14
O=C(Cc1cccs1)Nc1nnc(SCC(=O)N2CCCCC2)s1 | -2 | -3.1 | 0% | -43 | 5
CCOC(=O)c1c(-c2ccccc2)oc2ccc(O)c(CN3CCN(C)CC3)c12 | 2 | 0.4 | 6% | -18 | -29
Cc1ccc(Cl)cc1N1CCN(S(=O)(=O)c2c(C)nc3scc(C)n3c2=O)CC1 | -1 | 0.1 | . | . | .
O=C(NCCOCc1ccccc1)C(c1ccccc1)c1ccccc1 | -13 | 5.5 | 4% | . | 1
Cc1cccc(N2C(=O)N3[C@@H]4c5ccccc5OC[C@@H]4[C@@H](c4ccccc4)[C@]3(C)C2=O)c1 | -11 | 7.2 | . | . | .
CCOC(=O)N1CCN(CCC(=O)Nc2ccc(OC(F)(F)F)cc2)CC1 | 5 | . | 4% | -22 | 4
Cc1cc(N2CCCC2=O)ccc1S(=O)(=O)N1CCOCC1 | -14 | 2.5 | 6% | . | 1
CCc1nc2ccccc2c(C(=O)OCC(=O)Nc2cccc(S(=O)(=O)N3CCOCC3)c2)c1C | 77 | 2.6 | 12% | -4 | -22
O=C(Cc1ncc(C(F)(F)F)cc1Cl)N1CCN(c2ccc(F)cc2)CC1 | -4 | 0.7 | -5% | -16 | 6
CC1(C)CC(=O)C(N=Nc2cccnc2)=C(O)C1 | -2 | -0.6 | 4% | . | .
Cn1c(O)c(/C=C2/C=CC=N2)c(=O)[nH]c1=O | . | -6.3 | 2% | . | .
Fc1ccc(-c2nc3nc4ccccc4nc3n2Cc2ccco2)cc1 | -7 | 0.4 | 9% | 3 | -2
Cc1ccc(S(=O)(=O)N(CC(=O)NCCSc2ccccn2)c2ccccc2F)cc1 | 3 | -1.4 | . | . | .
CC(=O)c1cc2c(cc1NC(=O)CSc1nnc(C)s1)OCO2 | 82 | 0.8 | -3% | -71 | 0
Cc1ccc(NC(=O)C(=O)c2cn(CC(=O)N3CCCCC3)c3ccccc23)cc1 | 9 | 1.5 | 8% | 0 | -16
Cn1c(=O)cc(OCCCC(=O)N2CCCCC2)c2ccccc21 | -5 | -1.6 | 3% | 4 | 0
Cc1ccsc1/C=N/NC(=O)c1cccnc1 | 1 | . | -12% | . | .
Cc1ccc(S(=O)(=O)N2CCOC2CNC(=O)C(=O)NCCN(C)C)cc1 (stereo not given) | -7 | 1.6 | . | . | .
C/C=C(\C)CN1CCCC(CO)(Cc2ccccc2)C1 (stereo not given) | 7 | 0.4 | -1% | . | -11
O=S1(=O)N=C(N(CCO)/N=C/c2ccc(Cl)cc2)c2ccccc21 | 1 | -0.9 | . | . | .
CC1CCC2=NN(C(=O)c3ccco3)C(O)(C(F)(F)F)C2C1 (stereo not given) | 2 | -1.8 | 0% | . | -4
O=C(c1ccc(S(=O)(=O)c2cccc(Cl)c2)c([N+](=O)[O-])c1)N1CCN(Cc2ccccc2)CC1 | 1 | 28 | 5% | 4 | -37
O=C(NCCN=C1NS(=O)(=O)c2ccccc21)c1ccccc1 | 3 | -1.2 | . | . | .
COc1ccc(C2CC(c3ccccc3)=NN2C(=O)c2cccs2)cc1 (stereo not given) | 24 | 1.3 | 7% | -2 | -11
c1ccc2c(CCNc3ncnc4nc[nH]c34)cccc2c1 | 4 | . | -2% | 34 | -25
COc1ccc(-c2csc(NC(=O)C3CSC4(C)CCC(=O)N34)n2)c(OC)c1 (stereo not given) | 9 | 3.4 | . | . | .
Cc1ccc(NC(=O)CN(C)C(=O)Cc2c(Cl)cccc2Cl)cc1 | 4 | 0.8 | . | . | .
COC(=O)c1ccc2ccccc2c1OC1OC(CO)C(O)C(O)C1NC(C)=O (stereo not given) | 0 | -0.1 | . | . | .
O=C(NC1CCCCCC1)C1CCCN(S(=O)(=O)c2cccs2)C1 (stereo not given) | -6 | -1.4 | 2% | 2 | -5
Cc1ccc2nsnc2c1NC(=O)Cc1ccc(Cl)cc1 | 1 | -1.9 | 0% | . | -14
O=C(CNC(=O)Cc1ccccc1)NCC(=O)OCC(=O)c1ccc(Cl)cc1 | 2 | 1.4 | -8% | -26 | -4
Cc1ccc(S(=O)(=O)NCc2ccccc2)cc1C(=O)N(C)Cc1ccccc1F | -12 | 2.7 | . | . | .
CCCCC[C@H](O)/C=C/[C@H]1[C@H](O)CC(=O)[C@@H]1CCCCCCC(=O)O | -9 | -2.5 | -2% | . | .
Cc1ccccc1Nc1nnc(C)c(=O)n1N | -2 | 0.8 | -11% | -42 | 4
Cc1ccc2c(cnn2C(=O)CCCC(=O)NCc2cccc(F)c2)c1 | 1 | 1.7 | . | . | .

From PubChem BioAssay
